Source: PubChem (several laboratories)
Rce1 inhib – yeast Rce1p protease inhibitors, primary screen, biochemical, fluorescence, cell-free homogeneous; CAAX prenyl protease 2 (Saccharomyces cerevisiae (strain ATCC 204508 / S288c)), Q03530; yeast membranes, quenched prenylated peptide cleavage fluorescence; calls only; hit rate 0.27% among 290,000; AID 2563, 2010;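 active = fall in fluorescence gain of 50% or more versus controls, with final raw signal at or below 3038400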;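 also: plate controls were neutral control wells for no effect and wells lacking membranes for full effect; tested at 10 µM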
Target sequence (Q03530 whole entry, looked up): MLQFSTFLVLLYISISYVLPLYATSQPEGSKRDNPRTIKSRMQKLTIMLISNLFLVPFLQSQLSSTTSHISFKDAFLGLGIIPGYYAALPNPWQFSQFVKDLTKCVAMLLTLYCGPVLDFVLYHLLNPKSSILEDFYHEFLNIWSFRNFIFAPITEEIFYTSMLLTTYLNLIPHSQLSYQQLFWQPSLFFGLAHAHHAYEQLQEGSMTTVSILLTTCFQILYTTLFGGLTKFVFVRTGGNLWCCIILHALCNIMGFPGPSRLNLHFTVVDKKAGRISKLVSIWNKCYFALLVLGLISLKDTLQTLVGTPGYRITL
PABP FP inh – PABP poly(A) RNA binding inhibitors, primary screen, biochemical, fluorescence polarization, uHTS | inhibition, % at 35 µM | Polyadenylate-binding protein 1 (Homo sapiens), P11940 | hit rate 1% among 290,000;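 active = 50% or more with normal probe brightness, or confirmed in later tests; about a fifth of its hits are not listed in these tables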;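 also: calls also rest on retests at 20 µM and on dose response follow-up; controls were probe without protein and protein plus probe with vehicle; some compounds called inactive have numbers as strong as hits; many hits fall short of the cut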
eIF4H inh – human eIF4H binding inhibitors, primary screen, translation initiation inhibitor project, biochemical, uHTS, fluorescence polarization | Eukaryotic translation initiation factor 4H (Homo sapiens), Q15056 | hit rate 0.94% among 290,000 | inhibition, % at 35 µM | eIF4H fluorescence polarization binding assay;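 active = 50% or more with normal probe brightness, or confirmed in later tests; about a fifth of its hits are not listed in these tables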;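 also: calls also rest on retests at 20 µM and on dose response follow-up; 0% = protein and probe with vehicle and 100% = probe without protein; strong numbers were not always called active; many hits fall short of the cut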
UUG fidelity – modulators of yeast start codon fidelity, primary screen, whole organism, S. cerevisiae, single point, plate reader; S. cerevisiae UUG-firefly luciferase reporter, luminescence/redox ratio; activity score, % at 18.7 µM; hit rate 0.13% among 350,000;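 active = replicate mean at a twofold rise or more, about +100% in these data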;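 also: firefly luciferase made from a UUG start codon reports start codon fidelity; reporter light over untreated wells divided by growth signal over untreated wells; some hits fall short of that in this replicate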
MT1-MMP act inh – blockers of MT1-MMP proenzyme processing, primary screen, HT1080 RFP-PRO-GFP cells, GFP/RFP fluorescence; Matrix metalloproteinase-14 (Homo sapiens), P50281; GFP/RFP ratio fluorescence, overnight; percent of plate control window, DMSO zero; GFP/RFP ratio change, % at 20 µM; hit rate 0.061% among 360,000; AID 651647, 2012;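 active = GFP/RFP ratio change of at least 30% with cell ATP level not reduced by more than half and red fluorescence within 50% of control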; also: strong numbers were not always called active
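Assay system: RFP-PRO-GFP reporter HT1080 cells; read-out basis: GFP/RFP fluorescence ratio; benchmarks: DMSO wells and RFP-L50D-GFP cells; doses: 20 µM single dose, 1% DMSO; schedule: overnight cell settling, then overnight compound exposure, 37 °C, 5% CO2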
CSC inhib – cancer stem cell viability inhibitors, primary screen, luminescence; cancer stem cell-like cells viability; inhibition, % at 7.5 µM; hit rate 1.1% among 300,000; AID 2717, 2010;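 active = mean at 75% or more and at least half the replicates too; tested in HMLE shEcad cells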;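 also: 0% = median of negative and 100% = median of positive control wells; the first replicate is given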
Env fusion inh – inhibitors of HIV-1 Env-driven cell-cell fusion, primary screen, HeLa-JRFL effector, CEM21 target cells, luciferase. hit rate 1.1% among 360,000. inhibition, % at 12.3 µM. AID 651610, 2012;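 active = mean replicate inhibition score of at least 50 and every replicate individually at or above 50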;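 also: 0% = plate neutral controls and 100% = maraviroc near 300 nM; one replicate is shown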
MT1-MMP act inh RFP – further read-out of MT1-MMP act inh, marked with its call; RFP signal change, %; measured here: RFP expression control read;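 0 = vehicle wells; hits needed this value within 50% of zero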
Active calls of the source: *; i = inactive; / = no result given. The list is partial, so the mix of outcomes need not match the whole.

Start of the data: the first 10 records as a preview:
Letter code – A = Rce1 inhib; B = PABP FP inh; C = eIF4H inh; D = UUG fidelity; E = MT1-MMP act inh; F = MT1-MMP act inh RFP; G = CSC inhib; H = Env fusion inh
1: O=C(NCc1ccc(Cl)cc1)c1cccc(NC(=O)c2ccccc2)c1
  A: i | B: -1 | C: -1 | D: / | E: -2 | F: -12 | G: 111* | H: -19

2: C=CCNC(=S)Nc1cc(S(=O)(=O)N2CCOCC2)ccc1-n1cncn1
  A: i | B: 6 | C: 5 | D: -4 | E: 4 | F: 5 | G: 12 | H: -8

3: CCOc1ccc(-n2c(C)cc(/C=N/NC(=O)C(N)=O)c2C)cc1
  A: i | B: -1 | C: 4 | D: / | E: -1 | F: 1 | G: 6 | H: -1

4: CC(C)c1ccc(NC(=O)Nc2nc(C(N)C3CCCCC3)cs2)cc1 (configuration not stated)
  A: / | B: / | C: / | D: 2 | E: -38 | F: -25 | G: / | H: 31

5: COc1ccc(S(=O)(=O)N(CC(=O)NCC2CCCO2)Cc2ccccc2)cc1C (configuration not stated)
  A: i | B: 9 | C: -2 | D: -1 | E: -1 | F: 3 | G: -16 | H: -14

6: CCOC(=O)c1sc(NC(=O)c2ccc(S(=O)(=O)N3CCOCC3)cc2)cc1C
  A: i | B: -12 | C: 2 | D: / | E: -4 | F: -13 | G: -4 | H: /

7: CSc1sc(-c2nnc(SCC(=O)Nc3ccccc3)n2C)c2c1C=CCC2
  A: i | B: -7 | C: 0 | D: -5 | E: -2 | F: -2 | G: 7 | H: 20

8: O=C(NCc1cccs1)c1cccnc1SCCS(=O)(=O)c1ccc(C(F)(F)F)cn1
  A: i | B: 8 | C: 8 | D: -15 | E: -1 | F: -6 | G: 2 | H: 17

9: Cc1ccc(NC(=S)NCCSc2ccc(Cl)cc2)cc1
  A: i | B: -4 | C: -1 | D: / | E: 0 | F: -4 | G: 11 | H: 11

10: COc1c(C(=O)Nc2ccc3[nH]c(=O)[nH]c3c2)cc2ccccc2c1Br
  A: i | B: -7 | C: 2 | D: / | E: 3 | F: 2 | G: -2 | H: -31

The whole of this part (from the top)
Letter code – A = Rce1 inhib; B = PABP FP inh; C = eIF4H inh; D = UUG fidelity; E = MT1-MMP act inh; F = MT1-MMP act inh RFP; G = CSC inhib; H = Env fusion inh
1: O=C(NCc1ccc(Cl)cc1)c1cccc(NC(=O)c2ccccc2)c1
  A: i | B: -1 | C: -1 | D: / | E: -2 | F: -12 | G: 111* | H: -19

2: C=CCNC(=S)Nc1cc(S(=O)(=O)N2CCOCC2)ccc1-n1cncn1
  A: i | B: 6 | C: 5 | D: -4 | E: 4 | F: 5 | G: 12 | H: -8

3: CCOc1ccc(-n2c(C)cc(/C=N/NC(=O)C(N)=O)c2C)cc1
  A: i | B: -1 | C: 4 | D: / | E: -1 | F: 1 | G: 6 | H: -1

4: CC(C)c1ccc(NC(=O)Nc2nc(C(N)C3CCCCC3)cs2)cc1 (configuration not stated)
  A: / | B: / | C: / | D: 2 | E: -38 | F: -25 | G: / | H: 31

5: COc1ccc(S(=O)(=O)N(CC(=O)NCC2CCCO2)Cc2ccccc2)cc1C (configuration not stated)
  A: i | B: 9 | C: -2 | D: -1 | E: -1 | F: 3 | G: -16 | H: -14

6: CCOC(=O)c1sc(NC(=O)c2ccc(S(=O)(=O)N3CCOCC3)cc2)cc1C
  A: i | B: -12 | C: 2 | D: / | E: -4 | F: -13 | G: -4 | H: /

7: CSc1sc(-c2nnc(SCC(=O)Nc3ccccc3)n2C)c2c1C=CCC2
  A: i | B: -7 | C: 0 | D: -5 | E: -2 | F: -2 | G: 7 | H: 20

8: O=C(NCc1cccs1)c1cccnc1SCCS(=O)(=O)c1ccc(C(F)(F)F)cn1
  A: i | B: 8 | C: 8 | D: -15 | E: -1 | F: -6 | G: 2 | H: 17

9: Cc1ccc(NC(=S)NCCSc2ccc(Cl)cc2)cc1
  A: i | B: -4 | C: -1 | D: / | E: 0 | F: -4 | G: 11 | H: 11

10: COc1c(C(=O)Nc2ccc3[nH]c(=O)[nH]c3c2)cc2ccccc2c1Br
  A: i | B: -7 | C: 2 | D: / | E: 3 | F: 2 | G: -2 | H: -31

11: CCCc1nnc(NC(=O)c2cn(CC)c3cc(N4CCN(C)CC4)c(F)cc3c2=O)s1
  A: i | B: -14 | C: -3 | D: -11 | E: 2 | F: 1 | G: -12 | H: 0

12: CSc1nnc(-c2sc3cc(Cl)ccc3c2Cl)n1C
  A: i | B: 3 | C: 0 | D: -7 | E: -5 | F: 1 | G: 16 | H: -93

13: COC(=O)C(Cc1ccccc1)NC(=O)CNC(=O)c1ccc(Br)cc1 (configuration not stated)
  A: i | B: -8 | C: -3 | D: -40 | E: 2 | F: 4 | G: -12 | H: 5

14: O=C1NCC(c2ccccc2)C1C(=O)N/N=C/c1ccc(Cl)s1 (configuration not stated)
  A: / | B: -5 | C: -1 | D: / | E: -4 | F: -1 | G: 12 | H: -10

15: CCOC(=O)CC12CN3CN(C1)CC(CC(=O)OCC)(C3)C2=O
  A: i | B: -2 | C: -3 | D: -2 | E: -5 | F: 0 | G: / | H: -11

16: Cc1ccc(/C=C2\SC(=S)N(C3CCS(=O)(=O)C3)C2=O)cc1 (configuration not stated)
  A: i | B: -2 | C: 14 | D: / | E: -1 | F: 1 | G: -11 | H: 4

17: Cc1csc(SC(C)C(=O)Nc2ccc(S(=O)(=O)N3CCCC3)cc2)n1 (configuration not stated)
  A: i | B: -10 | C: -3 | D: -11 | E: 1 | F: 0 | G: -12 | H: -36

18: Cc1ccc(S(=O)(=O)NC(CC(C)C)C(=O)N2CCOCCOCCOCCOCC2)cc1 (configuration not stated)
  A: i | B: -4 | C: -3 | D: -6 | E: -1 | F: -2 | G: / | H: 8

19: COc1cccc(NC(=O)NC2(C(=O)N3CCN(C)CC3)CCCCC2)c1
  A: i | B: -2 | C: -1 | D: -18 | E: -1 | F: 6 | G: -13 | H: -5

20: COc1ccc(CC(=O)NC2CC(C)(C)NC(C)(C)C2)cc1
  A: i | B: 7 | C: -10 | D: / | E: 3 | F: -2 | G: 18 | H: -28

21: CCc1nc2ccc(C(=O)Nc3cccc(OC)c3)cn2c1N(CCC(C)C)CCN(C)C
  A: / | B: / | C: / | D: -10 | E: 1 | F: 1 | G: / | H: -31

22: Cc1c(C(=O)N2CCN(c3ccccn3)CC2)cccc1[N+](=O)[O-]
  A: i | B: 2 | C: -4 | D: / | E: -1 | F: -1 | G: 0 | H: -6

23: CCn1c2c(c3ccc(OC)cc31)CCCC2=O
  A: i | B: 8 | C: 3 | D: / | E: -8 | F: 0 | G: 8 | H: /

24: O=C(Cn1cc([N+](=O)[O-])ccc1=O)Nc1ccc2c(c1)OCO2
  A: / | B: / | C: / | D: -23 | E: -2 | F: 1 | G: 2 | H: 5

25: Cc1ccc2cc(CN(CC3CCCO3)C(=S)NCc3ccco3)c(=O)[nH]c2c1 (configuration not stated)
  A: i | B: 0 | C: 2 | D: -17 | E: -5 | F: 0 | G: -5 | H: 4

26: CN1OC[C@@H]2CN(C(=O)c3ccc(-c4ccccc4)cc3)[C@H](c3ccc(-c4cccc(F)c4)cc3)C[C@@H]21
  A: / | B: / | C: / | D: -17 | E: -6 | F: -6 | G: / | H: 20

27: CCCc1ccc(-c2cc(NC(=O)CSc3n[nH]c(N)n3)n(-c3ccccc3)n2)cc1
  A: i | B: -5 | C: -2 | D: -22 | E: 5 | F: -2 | G: 91* | H: -35

28: O=C(OCc1nc2ccccc2s1)c1cccc(S(=O)(=O)N2CCOCC2)c1
  A: i | B: -6 | C: 0 | D: -12 | E: -1 | F: 1 | G: -6 | H: /
